Assay outcomes: PubChem, National Center for Advancing Translational Sciences (NCATS)
Bst PK mod: alters activity of Bacillus stearothermophilus pyruvate kinase; partly purified Bacillus stearothermophilus pyruvate kinase, luminescence ATP production; ribose 5-phosphate activator present at AC10; Potency, µM; 51,000 compounds, 1.2% hits; AID 361; in the data active means potency below about 11 µM; inconclusive means mostly about 12 µM to 25 µM; inactive means weaker than that;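 the screen sought inhibitors and activators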;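 also: potency is read from the fitted curve at half-maximal effect; scaled between full activation by ribose 5 phosphate and full inhibition by luteolin; about four in five hits inhibit and the cells do not say which; series up to 57 µM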
TsaE inh: displaces an ADP probe from E. coli YjeE (TsaE); Potency, µM; purified YjeE, fluorescence polarisation of a bound ADP probe; 71,000 compounds, 0.05% hits; P0AF67; AID 605; active = well fitted falling curve; inconclusive = weaker or top-dose-only fall, or a rising curve; inactive = flat or poorly fitted curve;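 also: top concentration of the series not given in the record; excess ADP was the control for the full effect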
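Fluorescence polarization of a BODIPY Texas Red–ADP probe (2 uM) bound to purified YjeE (10 uM) was read after 15 min room-temperature incubation with compounds. Loss of polarization marks inhibitors; ADP serves as titrated control.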
* hit, by the source's call; i = inactive; ? = inconclusive; nt = not tested or not shown. Only part of the results is shown; rates above refer to the full screens.

TsaE inh	Bst PK mod	mol
i	>57	COc1ccc(C(=O)c2ccc(OC)c(OC)c2)cc1OC
i	>57	CCC12CN3CC(CC)(CN(C1)C31C(=O)N(C)c3ccc(C)cc31)C2=O (configuration not stated)
i	>57	CCOc1c(OC)cc(C2C(C#N)=C(N)Oc3n[nH]c(-c4ccncc4)c32)cc1OC (configuration not stated)
i	>57	CC(=O)c1ccc(NC(=O)CSc2nnc(NC(=O)CN3CCOCC3)s2)cc1
i	>57	CN(C)C(=O)N1CCC(C(=O)NCc2ccccc2)CC1
i	nt	CCOC(=O)c1c(C)n(C)c2c(C)cc(O)c(OC(=O)CC)c12
i	>57	CCCc1[nH]nc2c1C(c1cn[nH]c1-c1ccc(F)cc1)C(C#N)=C(N)O2 (configuration not stated)
i	>57	Oc1cccc(C(=S)N2CCN(Cc3ccccc3)CC2)c1
i	>57	c1ccc(Cn2nnnc2C(c2cccnc2)N2CCN(C3CCCCC3)CC2)cc1 (configuration not stated)
i	nt	CSC1=NCCN1C(=O)c1ccc(S(=O)(=O)N2CCCC2)cc1
i	>57	CC(=O)N1CCc2cc(S(=O)(=O)CCC(=O)NCc3ccc4c(c3)OCO4)ccc21
i	>57	CC1=C(SCCC#N)S/C(=C2\SC(C)=C(SCCC#N)S2)S1
i	>57	Cc1c(N(C(=O)c2cc(=O)[nH]c3ccccc23)C(C)C)c(=O)n(-c2ccccc2)n1C
i	nt	Cc1noc(C)c1-c1nccc(N(C)Cc2ccco2)n1
i	nt	COc1ccccc1CN(C)C(=O)C1COc2ccccc2O1 (configuration not stated)
i	nt	N#Cc1cccc(NC(=O)N2CC[C@@]3(CCCN(C(=O)c4cccc(F)c4)C3)C2)c1
i	>57	Cc1onc(-c2ccccc2Cl)c1C(=O)Nc1ccc(S(=O)(=O)NCC2CCCO2)cc1 (configuration not stated)
i	nt	Cc1onc(-c2ccccc2)c1C(=O)Nc1cccc(C#N)c1
i	>57	CCOc1ccc(NC(=O)CSc2nnc(C)n2CCCOC)cc1
i	>57	O=C(CC1SCCNC1=O)Nc1cccc(C(F)(F)F)c1 (configuration not stated)
i	>57	CN(CC(=O)N1CC(=O)N(CCc2ccccc2)C(=O)C1)S(=O)(=O)c1cccc2nsnc12
i	nt	COc1cc(NC(=O)c2cc3c(=O)n(C)c4ccccc4c3n2C)cc(OC)c1OC
i	>57	CCC(C)(C(=O)NC1CCCC1)N(C(=O)CNC(C)=O)c1ccc(C)cc1 (configuration not stated)
i	2.3*	Cc1cc2nn(-c3ccccc3)nc2cc1NC(=O)c1cccs1
i	nt	Cc1nc2c(C(=O)N3CCCCC3)cnn2c(C)c1Cc1ccccc1F

Record cards, from the list above. Order of screens: TsaE inh | Bst PK mod
CN(CC(=O)N1CC(=O)N(CCc2ccccc2)C(=O)C1)S(=O)(=O)c1cccc2nsnc12 in the list: i | >57
O=C(CC1SCCNC1=O)Nc1cccc(C(F)(F)F)c1 (configuration not stated) in the list: i | >57
COc1ccc(C(=O)c2ccc(OC)c(OC)c2)cc1OC in the list: i | >57
Cc1c(N(C(=O)c2cc(=O)[nH]c3ccccc23)C(C)C)c(=O)n(-c2ccccc2)n1C in the list: i | >57
Cc1nc2c(C(=O)N3CCCCC3)cnn2c(C)c1Cc1ccccc1F in the list: i | nt

Remaining list, next part.
TsaE inh	Bst PK mod	mol
i	>57	CC1CCCCN1C(=O)Cn1nnc(-c2cccnc2)n1 (configuration not stated)
i	>57	Cc1ccc(OCCC(=O)OCC(=O)N2c3ccccc3CC2C)cc1 (configuration not stated)
i	nt	CCCCCCCCC
i	>57	CCOC(=O)c1ccc(N2C(=O)CC(C(=O)OC)=C2C)cc1
i	nt	O=c1c(-c2ccccc2)nc2cnc(Oc3ccccc3)nc2n1Cc1cccs1
i	>57	CCOc1ccccc1N1CCN(C(=O)Nc2ccc(F)c(Cl)c2)CC1
i	>57	O=C1OCCN1CCN(CN1C(=O)CCC1=O)CN1C(=O)CCC1=O
i	nt	Cc1nn(-c2ccccc2)c(C)c1CCC(=O)O
i	nt	COc1ccc(-c2nc(C#N)c(N3CCOCC3)o2)cc1OC
nt	>26	CC(=O)N[C@H]1C[C@@H]1c1ccccc1
i	>57	CCOC(=O)c1ccc(NC(=O)CCc2nc(-c3ccccc3Cl)no2)cc1
nt	>26	CC(C)Oc1ccc(Cc2c(O)nc(NCCCN(C)C)[nH]c2=O)cc1
i	>57	c1ccc(Cc2nnc(-c3ccccc3)o2)cc1
i	>57	CC(=O)Nc1sc(NC(=O)c2ccccc2)nc1-c1cccs1
i	>57	CCN1C=C(Cc2cccs2)C2=C(C1)C(c1cccs1)C(C#N)=C(N)O2 (configuration not stated)
i	nt	C[C@H](C[C@H](N)C(=O)O)C(=O)O
i	>57	CCC(=O)Nc1sc(C(=O)OC)c(C)c1C(=O)OC
i	nt	Fc1cc(F)c2nc(N3CCOCC3)sc2c1
i	>57	Cc1ccc(N2CCN(c3ccc(C)cc3)C(CC(=O)O)C2=O)cc1 (configuration not stated)
i	>57	CC(C)(CN=C1NS(=O)(=O)c2ccccc21)CNC(=O)CN1C(=O)c2ccccc2C1=O
i	nt	Cc1ccccc1-n1c(=O)cc(N2CCN(C(=O)c3ccco3)CC2)[nH]c1=O
i	nt	CCOC(=O)C1CCN(CC(O)COc2ccc(C(C)=O)cc2)CC1 (configuration not stated)
i	>57	O=C(CS(=O)(=O)c1cn(Cc2ccccc2Cl)c2ccccc12)N1CCOCC1
i	>57	CC(=O)c1cccc(N(CC(=O)Nc2cccnc2)S(C)(=O)=O)c1
i	nt	FC(F)(F)c1ccccc1-c1ccc2ncnc(N3CCOCC3)c2c1

In the list so far, 2 contain a CF3 group:
TsaE inh	Bst PK mod	mol
i	>57	O=C(CC1SCCNC1=O)Nc1cccc(C(F)(F)F)c1 (configuration not stated)
i	nt	FC(F)(F)c1ccccc1-c1ccc2ncnc(N3CCOCC3)c2c1

Further results follow:
TsaE inh	Bst PK mod	mol
i	>57	CCOC(=O)c1cc2c(n(-c3ccccc3)c1=O)CC(C)(C)CC2=O
i	>57	Cc1ccc(C(=O)N(CN2CCCC2=O)c2ccccc2)cc1C
i	>57	O=c1[nH]c2cc3c(cc2cc1CN(CC1CCCO1)S(=O)(=O)c1ccc(Cl)cc1)OCCO3 (configuration not stated)
i	>57	CC(=O)Nc1cccc2c1C(=O)NC2=O
i	nt	CCOC(=O)N1CCC(N2CC34C=CC(O3)C(C(=O)O)C4C2=O)CC1 (configuration not stated)
i	nt	Cn1cccc1C(=O)N1CCC2(CC1)CN(c1ccncc1)C2
i	>57	CCOC(=O)c1cnn(CCOC(=O)c2cccs2)c1NC(=O)c1cccs1
i	>57	C=CCSc1ncccc1C(=O)O
i	nt	N=C(N)SCc1ccc(Cl)cc1Cl (tested in a mixture with another compound)
i	>57	CCOC(=O)CN1C(=O)C(O)(c2c(C)[nH]c3ccccc23)c2ccccc21 (configuration not stated)
i	nt	COc1ccc(/C(N)=C/C(=O)C(C)(C)C)cc1
i	>57	O=C(CCCC(=O)N(CC(=O)NC1CCCC1)Cc1ccccc1Cl)Nc1ccccn1
i	>57	N#Cc1cccc(C(c2nnnn2Cc2ccccc2)N2CCCC2)c1 (configuration not stated)
nt	>26	COc1ccc(OC)c(C2NC(=O)c3sc(=S)n(-c4ccccc4)c3N2)c1 (configuration not stated)
i	>57	COc1ccc(OC)c(N(CC(=O)N2CCCC2)S(=O)(=O)c2ccc(OC)c(OC)c2)c1
i	>57	Cc1ccc(NC(=O)CCC(=O)O)cc1F
i	>57	O=C(Cc1ccccc1)Nc1cccc(-c2nc3ncccc3o2)c1
i	nt	CCCCN=C(C)c1c(O)c2ccccc2oc1=O
i	nt	CC1Cc2nc(SCC(=O)Nc3ccc4c(c3)OCO4)n(-c3ccc(F)cc3)c(=O)c2S1 (configuration not stated)
i	>57	O=C(Nc1ccc2c(c1)OCCO2)c1ccncc1
i	>57	Cc1nc(NC2=NCN(CCc3ccccc3)CN2)nc2c(C)cccc12
i	?	O=C1c2ccccc2C(=O)N1CC1c2ccccc2CCN1S(=O)(=O)c1cnc[nH]1 (configuration not stated)
i	>57	COc1ccc(CCN2C(=O)CC(Sc3ncccc3C(=O)O)C2=O)cc1OC (configuration not stated)
i	>57	CCc1nn2c(N3CCOCC3)cc(C)nc2c1-c1ccc(F)cc1
i	>57	O=C(CN1CCN(Cc2ccccc2Cl)C1=O)N1CCCCCC1

The list goes on.
TsaE inh	Bst PK mod	mol
i	>57	CCO/C=C1/C(=O)N(CC)c2ccccc21
i	nt	CC(=O)NCC(=O)OCC(=O)c1ccc(C)c(C)c1
i	>57	O=C(NCC1CCCO1)C1CCC(=O)N1Cc1ccccc1Cl (configuration not stated)
i	nt	Cc1cccc(CNc2ncnc3[nH]ncc23)c1
i	>57	CC(C)N(c1ccccc1)c1ccc(NC(=O)C2CCCO2)cc1 (configuration not stated)
i	>57	COc1ccc(OC)c(S(=O)(=O)N2CCC(C(=O)Nc3ccc(C)c(C)c3)CC2)c1
i	>57	COc1cc(CC(NC(C)=O)C(=O)NC2CCN(c3nc(C)cc(C)c3C#N)CC2)cc(OC)c1 (configuration not stated)
i	nt	COc1ccccc1N1CSC2=C(C#N)C(c3ccc(SC)cc3)CC(=O)N2C1 (configuration not stated)
i	?	Cc1ccc(S(=O)(=O)Nc2cc(C(=O)NCCN3CCCC3)ccc2N2CCCCC2)cc1
nt	>26	COC(=O)Sc1nc(N2CCOCC2)c2c(c1C#N)CC(C)(C)OC2
i	>57	CCOc1ccccc1N1CCN(C(=O)c2c(C)noc2C)CC1
i	>57	O=C1c2cccc3c(N4CCCCC4)ccc(c23)C(=O)N1c1ccccn1
i	nt	CCCc1cc(C(=O)Nc2cc(Br)ccc2O)no1
nt	>26	CCN(CC)CCCn1c(C)cc2c(c1=O)C(c1ccccc1)C(C#N)=C(N)O2 (configuration not stated)
i	>57	Nc1nc(CN2CCN(c3ccccc3)CC2)nc(N2CCCc3ccccc32)n1
i	>57	Cc1ccc(CNC(=O)CN2C(=O)C3(OCCCO3)c3ccccc32)cc1
i	>57	CN1CCN(c2ccccc2NS(=O)(=O)c2ccc3c(c2)CCN3C(=O)C2CCC2)CC1
i	>57	COc1cccc(NC(=O)CSc2nnc(-c3cccc(OC(C)C)c3)n2N)c1
i	nt	O=C(c1ccco1)N1CCC2(CCCN(c3cccc(-c4ccccc4)c3)C2)CC1
i	>57	CCOC(=O)N1CCN(C(=O)CN(C2CCCCC2)S(C)(=O)=O)CC1
i	nt	CS(=O)(=O)N1CCC2(CCCN(C(=O)Nc3cccc(F)c3)C2)CC1
i	>57	O=C(NCc1ccco1)c1ccc(N2CCCC2=O)cc1
i	>57	CN(CC(=O)Nc1ccc(F)c(F)c1)S(=O)(=O)c1cccc2nsnc12
i	>57	COc1nc(-c2ccccc2)ccc1-c1noc(COc2ccccc2)n1
i	>57	C=CCn1c(SCC(=O)/C(C#N)=C(\C)N)nc2sc(CC)cc2c1=O

Further compounds.
TsaE inh	Bst PK mod	mol
i	>57	O=C(CCn1nnc(-c2cccs2)n1)NCc1ccccc1Cl
i	nt	O=C1CC(c2ccc(S(=O)(=O)NCc3ccccc3)cc2)CN1 (configuration not stated)
i	>57	CCCCn1nnnc1NCc1cccs1
i	nt	CCOC(=O)Cn1c(CN2CCOCC2)nc2c1c(=O)n(C)c(=O)n2C
nt	>26	CCN(CC)CCN1C(=O)c2ccccc2NC1c1cc(OC)c(OC)c(OC)c1 (configuration not stated)
i	nt	CC(C)c1ccc(NC(=O)C2CCCCC2C(=O)O)cc1 (configuration not stated)
i	>57	CC(C)(CO)NCc1ccccc1OCC(=O)Nc1ccccc1
i	nt	CCN(CC)CCN1C(=O)C(=O)/C(=C(/O)c2ccccc2)C1c1ccccc1F (configuration not stated)
i	>57	CN(C)CCNc1ncnc2ccccc12
i	>57	O=C(CN(Cc1cccs1)C(=O)CNS(=O)(=O)c1ccc(F)cc1)NCc1ccco1
i	>57	CCOC(=O)N1CCN(C(=O)c2ccc3nc(N4CCCCC4)sc3c2)CC1
i	>57	CCn1c(C)c(C(C)=O)c(N2CCCCC2)nc1=S
i	>57	CN(C)C(=O)CN(C)S(=O)(=O)c1ccc(Cl)cc1
i	>57	CCN(CCO)C(=O)C12CCC(C)(C(=O)C1)C2(C)C (configuration not stated)
i	nt	CN(C)c1ccc(/C(=N\O)C(F)(F)F)cc1
i	>57	CCC(=O)N1CCc2cc(S(=O)(=O)NC(C(=O)NCc3ccccc3)C(C)C)ccc21 (configuration not stated)
nt	>26	Cn1ccnc1SCCC#N
i	>57	NCC(O)COCCC12CC3CC(CC(C3)C1)C2 (configuration not stated)
i	>57	CC(=O)Nc1nc(C)nc(C)c1C(C)=O
i	>57	Cc1ccccc1-c1ccc(=O)n(CC(=O)Nc2ccc(N3CCOCC3)cc2)n1
i	>57	CCCCCN(C(=O)NC(=O)Nn1cnnc1)S(C)(=O)=O
i	>57	COc1ccc(-n2c(=O)c3c4c(sc3n3c(C)nnc23)COC(C(C)C)C4)cc1 (configuration not stated)
i	nt	O=C1CCCC2=C1C(c1ccccc1)C1=C(CCCC1=O)O2
i	nt	COc1ccc2[nH]cc(CCNc3ccnc(-c4cccc(NS(C)(=O)=O)c4)n3)c2c1
i	>57	CCSc1nnc(NC(=O)CCNS(=O)(=O)c2cc(Br)cnc2N)s1
i	>57	CCOC(=O)c1c(C#N)c(SCC(=O)Nc2ccc(OC)cc2)nc2c1CN(CC)CC2
i	nt	COc1ccc(CNC(=O)CSc2nnnn2-c2ccccc2)cc1
